Compound activity as filed in PubChem.
KAT2A inh: GCN5L2 (KAT2A) acetyltransferase inhibition | Potency, µM (series often up to 58.9 µM), without a hit: at the top dose activity change, negative = inhibition, actives largely listed as inhibitors | Q92830 | 390,000 compounds, 0.21% hits | AID 504327 | GCN5L2 HAT assay, ThioGlo1 CoA-SH fluorescence
Target sequence (Q92830 whole entry, looked up): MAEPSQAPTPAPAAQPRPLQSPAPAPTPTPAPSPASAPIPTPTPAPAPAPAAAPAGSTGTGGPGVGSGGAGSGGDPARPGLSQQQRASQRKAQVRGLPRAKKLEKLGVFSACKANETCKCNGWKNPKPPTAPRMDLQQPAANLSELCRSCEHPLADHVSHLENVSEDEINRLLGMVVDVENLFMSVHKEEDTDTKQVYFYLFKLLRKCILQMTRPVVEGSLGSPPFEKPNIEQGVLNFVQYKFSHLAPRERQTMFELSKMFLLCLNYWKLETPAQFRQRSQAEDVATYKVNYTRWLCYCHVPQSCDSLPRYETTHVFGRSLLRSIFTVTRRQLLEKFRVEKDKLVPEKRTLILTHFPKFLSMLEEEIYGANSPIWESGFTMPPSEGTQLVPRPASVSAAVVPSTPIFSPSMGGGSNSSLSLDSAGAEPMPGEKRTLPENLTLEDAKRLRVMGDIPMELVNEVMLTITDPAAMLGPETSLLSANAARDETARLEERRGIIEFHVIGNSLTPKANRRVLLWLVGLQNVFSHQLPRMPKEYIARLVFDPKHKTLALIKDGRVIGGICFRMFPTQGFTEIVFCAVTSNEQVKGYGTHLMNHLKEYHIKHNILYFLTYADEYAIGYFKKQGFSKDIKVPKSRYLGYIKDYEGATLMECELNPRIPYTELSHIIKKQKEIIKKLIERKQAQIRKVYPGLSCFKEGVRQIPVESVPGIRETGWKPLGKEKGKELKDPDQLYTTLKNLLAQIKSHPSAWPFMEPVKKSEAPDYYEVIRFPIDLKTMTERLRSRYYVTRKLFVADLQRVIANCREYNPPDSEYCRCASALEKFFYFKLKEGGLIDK
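Preincubate 20nM GCN5L2 with compound 15 min, RT → add 50uM ThioGlo1 + 75uM H3(1-25) + 70uM acetyl-CoA → read fluorescence 0 and 20 min. Primary qHTS; fluorescent artifacts likely.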
FEN1 inhibitor: blocks human flap endonuclease 1. P39748. Recombinant FEN1 flap cleavage, fluorescence, 15 min. Potency, µM (highest dose often 114 µM), without a hit: at the top dose activity change, negative = inhibition, hits mostly inhibitors. 390,000 compounds, 0.35% hits; note: nearly all actives have a fitted effect of over 65% in size
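Concentration–response screening of FEN1 (10 nM): 15 min compound preincubation at room temperature, reaction started with 50 nM substrate and read at 0 and 15 min. Corrected, normalized data were fitted by a four-parameter Hill equation.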
* = called active by the depositor; ? = inconclusive; / = not tested or not shown; [ ] = remark or other dose. Calls come from the whole dose curve; as a rule, active = well fitted curve in the direction sought with a large enough effect; inconclusive = small, poorly fitted or top-dose-only effect, or another doubt; inactive = no such curve, though single readings can be large; an effect the other way counts as inactive or inconclusive. % is set by controls: 0 for no effect and ±100 for the full control effect; potency is the fitted concentration of half-maximal effect. Not all compounds are listed; most or all hits stand in other tables.

Values in the order – KAT2A inh, FEN1 inhibitor
> COc1cccc(N2CCN(C(=O)Cn3c(-c4cccs4)cc4ccccc43)CC2)c1
→ -12.6%, 2.8%
> O=C(CN(C1CCCCC1)S(=O)(=O)c1ccc(Cl)cc1)NCCCO
→ -0.6%, 2.7%
> COc1ccc(-c2nc(SCc3ccccc3)n(S(C)(=O)=O)n2)cc1
→ -3.5%, -4.1%
> O=C(CN(Cc1ccccc1)S(=O)(=O)c1ccccc1)N/N=C/c1ccc2c(c1)OCO2
→ -15.2%, -22.1%
> O=C(Oc1ccc2ccccc2c1Cl)N1CCCC1
→ 1.4%, -4.3%
> Cc1noc(NS(=O)(=O)c2ccc(NC(=O)COc3ccc(Cl)cc3Cl)cc2)c1C
→ -5.5%, -5.2%
> CCc1c(C)sc(NC(=S)Nc2nc(C)cc(C)n2)c1C(=O)OC
→ -1.1%, 6.4%
> CC(C)c1ccc(NC(=O)CSc2n[nH]c(=O)n2Cc2ccco2)cc1
→ 2.6%, 16.8%
> O=C(CNC(=S)N(CCCN1CCOCC1)Cc1cccs1)NC1CC1
→ -3.8%, 1.9%
> CC(=O)N(Cc1cccnc1)Cc1cc2ccc(C)cc2[nH]c1=O
→ -4.6%, -1.5%
> C=CCn1c(N)c(C(=O)N2CCOCC2)sc1=S
→ -13.3%, 3.4%
> O=C(CN1CCCc2ccccc21)NCc1ccc2c(c1)OCO2
→ 1.0%, -2.6%
> O=C(COc1ccccc1)Nc1ccc2oc(=O)ccc2c1
→ 2.0%, -0.4%
> Cc1cc(NC(=O)CN2C(=O)C(C)(C)c3ccccc32)ccc1Br
→ -6.0%, -18.3%
> CC(OC(=O)c1ccc(Cl)c(S(N)(=O)=O)c1)C(=O)NCC1CCCCC1 (configuration not stated)
→ -3.1%, 14.9%
> CCCCc1nnc(NC(=O)C2CC(=O)N(Cc3ccccc3)C2)s1 (configuration not stated)
→ -6.9%, -10.1%
> Cc1ccc(C(=O)NC(NCC2CCCO2)C(Cl)(Cl)Cl)cc1 (configuration not stated)
→ 23.6%, -0.3%
> COc1ccc(NC(=O)CSc2nncn3c2cc2oc(C)cc23)cc1OC
→ -11.7%, 3.5%
> O=C(CCNC(=O)C1CCN(S(=O)(=O)c2ccccc2)CC1)NCc1cccc(C(F)(F)F)c1
→ -21.6%, 18.6%
> COc1cccc(-c2nc(-c3ccc(NC(=O)c4cccnc4)cc3)no2)c1
→ 1.9%, -1.8%
> CC(C)Cn1c(=O)c(C(=O)Nc2ccccc2S(N)(=O)=O)c(O)c2ccccc21
→ -2.3%, -7.8%
> COc1ccccc1NC(=O)CNC(=O)c1ccccc1C
→ -0.4%, -11.2%
> COc1ccc(C)cc1NC(=S)N1CCN(S(C)(=O)=O)CC1
→ 3.3%, 5.5%
> COc1cc(C(=O)OCc2cc(=O)n3nc(C(C)C)sc3n2)cc(OC)c1OC
→ -3.9%, 0.8%
> O=C(CN1CCCC1)N/N=C/c1ccc(-c2cccc(Cl)c2)o1
→ -9.0%, -13.3%
> CCc1c(-c2ccccc2)nc2sc3c(c2c1N)CCCC3
→ -6.0%, ?
> O=C(Nc1ccc(SC(F)F)cc1)C12CCC(CC1)C2
→ -1.8%, -16.4%
> C/C=C/c1ccc(OCCCn2cncn2)c(OC)c1
→ -1.1%, -4.5%
> Cc1ccc(NC(=O)CN2C(=O)NC3(CCCc4ccccc43)C2=O)c([N+](=O)[O-])c1 (configuration not stated)
→ -20.1%, -11.6%
> COc1cc(NC(=O)c2cccc([N+](=O)[O-])c2)ccc1NC(=O)c1ccco1
→ -8.3%, -5.9%

Record cards, as listed above:
Record of O=C(Oc1ccc2ccccc2c1Cl)N1CCCC1 = KAT2A inh = 1.4%; FEN1 inhibitor = -4.3%
Record of CC(C)c1ccc(NC(=O)CSc2n[nH]c(=O)n2Cc2ccco2)cc1 = KAT2A inh = 2.6%; FEN1 inhibitor = 16.8%
Record of O=C(COc1ccccc1)Nc1ccc2oc(=O)ccc2c1 = KAT2A inh = 2.0%; FEN1 inhibitor = -0.4%

Later entries:
Values in the order – KAT2A inh, FEN1 inhibitor
> Cc1cc(N2CCN(C)CC2)ccc1NC(=O)c1c2c(nc3ccccc13)CCN(Cc1ccccc1)C2
→ 1.0%, ?
> CCn1cnc2cc(NCc3cccc(OC)c3O)ccc21
→ 0.1%, 11.6%
> Cc1cccc(-n2c(=O)c3c(c4cc(C)ccc4n3C)n(CC(=O)Nc3ccccc3C(F)(F)F)c2=O)c1
→ -4.0%, 18.8%
> CCOC(=O)C(=Cc1ccccc1OC)C(=O)OCC
→ -13.7%, 1.9%
> Cc1cc(OCc2ccc(C(=O)NN=C3CCCC3)cc2)ccc1Cl
→ 0.7%, 7.9%
> CCCCCCCC[n+]1cccc2c3ccccc3ccc21
→ -13.3%, -3.4%
> CCOC(=O)[C@@H]1[C@H]2COc3ccc(Br)cc3[C@H]2N2C(=O)N(c3ccc(OC)cc3)C(=O)[C@]12C
→ -3.8%, 5.8%
> O=C(NC1CCN(Cc2ccccc2)CC1)c1cccc(S(=O)(=O)Nc2ccc(F)cc2)c1
→ 0.3%, 14.0%
> Cc1cccn2c(=O)c3cc(C#N)c(=O)n(-c4nnc(SCc5ccc(Cl)cc5)s4)c3nc12
→ ?, -7.7%
> COc1ccc(C)cc1S(=O)(=O)Nc1ccc(F)c(Cl)c1
→ -19.8%, 0.5%
> COc1ccc(-c2ccnc(SCC(=O)N3CCOCC3)n2)cc1
→ 1.1%, -0.8%
> COCC(C)NC(=O)c1cccc(Cl)c1 (configuration not stated)
→ /, -7.3%
> Cn1cc(CN2CCN(c3ccccc3)CC2)c2ccccc21
→ -2.2%, -19.0%
> O=S(=O)(c1ccccc1)c1nc(-c2ccc(Cl)cc2)oc1NCCCN1CCOCC1
→ -2.8%, -16.7%
> COc1ccc(CC(=O)Nc2ccc(-c3csc(C)n3)cc2)cc1
→ -13.1%, -0.1%
> O=C(CCc1ccc(S(=O)(=O)NCCc2ccccc2)cc1)Nc1ccc2c(c1)OCO2
→ -4.6%, 6.1%
> CCCn1cc(CN2CCC(n3nccc3NC(=O)c3ccccc3)CC2)c(C)n1
→ 1.1%, -6.9%
> O=C(Nc1ccccc1N1CCN(C(=O)c2ccccc2)CC1)c1cccc(Cl)c1
→ -12.2%, -8.9%
> Cc1ccc(C(=O)/C=C/c2ccc(F)cc2)o1
→ -5.4%, -0.8%
> Cc1nn(C)cc1CN1CCC(CO)(CCOc2ccccc2)CC1
→ -1.0%, -0.7%
> Cn1c(C(=O)O)cc2cc(F)ccc21
→ 4.2%, -2.4%
> Cc1ccc(CN2C(=O)CSc3ccc(C(=O)NCCN4CCOCC4)cc32)cc1
→ -0.6%, 0.4%
> O=C(NCCO)c1ccc2c(c1)S(=O)(=O)c1ccccc1C2=O
→ 0.0%, -18.5%
> O=C(Nn1c(SCc2ccc([N+](=O)[O-])cc2)nc2ccccc2c1=O)c1ccc(F)cc1
→ 1.6%, -1.4%
> CCn1c(SCC(=O)Nc2ccc(C(=O)OC)cc2)nc2cccnc21
→ -3.0%, -4.1%
> Cc1ccc(C(=O)CCC2CCCCC2=O)cc1 (configuration not stated)
→ 0.1%, -0.7%
> COc1ccc(/C=C(\NC(=O)c2ccccc2)C(=O)NC2CCCCC2)cc1
→ -4.3%, -6.4%
> Fc1ccc(-c2nnc(CSc3nnc4ccccn34)o2)cc1
→ -1.7%, 50.0%[activator]
> O=C(Cn1nc(Cc2cccnc2)c2ccccc2c1=O)N1CCN(c2ccccc2F)CC1
→ 4.5%, 1.3%
> CCCCNC(=O)CCCCn1c(=S)[nH]c2c([nH]c3ccc(OC)cc32)c1=O
→ -6.1%, 13.1%

Quoted from the listing for reference:
Values in the order – KAT2A inh, FEN1 inhibitor
> O=C(Cn1nc(Cc2cccnc2)c2ccccc2c1=O)N1CCN(c2ccccc2F)CC1
→ 4.5%, 1.3%
> CCCCNC(=O)CCCCn1c(=S)[nH]c2c([nH]c3ccc(OC)cc32)c1=O
→ -6.1%, 13.1%

Additional entries follow:
Values in the order – KAT2A inh, FEN1 inhibitor
> Cc1cc2oc(C(=O)NCCc3ccc(S(N)(=O)=O)cc3)c(C)c2cc1C
→ -2.4%, ?
> COCCCNC(=O)CCn1c(=O)c2ccccc2n(CC(=O)Nc2ccc(C)cc2C)c1=O
→ -19.6%, 9.1%
> CN(C)S(=O)(=O)c1ccc(C(=O)OCC2COC(C)(C)O2)cc1 (configuration not stated)
→ 0.8%, 2.7%
> O=C(CSc1ncnc2ccccc12)NCC(=O)c1ccccc1
→ -2.9%, 0.1%
> Cc1c(C)n(C(=O)CSc2nncn2C)c2ccccc12
→ -5.9%, 3.4%
> COc1ccccc1N1CCN(C(=O)c2cc(-c3ccccc3)on2)CC1
→ -4.5%, 11.8%
> CCOC(=O)C1=C(N)OC2=C(C(=O)CCC2)C1c1sccc1C (configuration not stated)
→ 1.8%, 1.3%
> COc1ccccc1Nc1nc(C)cc(C)c1C(N)=O
→ -7.9%, -3.6%
> CCOC(=O)C1(C(C)(C)CC)CC(CSc2nc3ccccc3[nH]2)OC1=O (configuration not stated)
→ -14.0%, ?
> COc1cc(NS(=O)(=O)c2ccc(NC(=O)Cc3ccccc3)cc2)nc(OC)n1
→ -2.2%, 3.3%
> CCS(=O)(=O)N1CCc2cc(C(=O)NCc3ccccc3)ccc21
→ -5.3%, -7.8%
> COc1ccc(CNC(=O)C(c2ccc(C)o2)N(C(=O)c2csnn2)c2ccc(C(C)C)cc2)cc1 (configuration not stated)
→ -3.1%, -2.1%
> CC(C)Cn1c(N)c(C(=O)COC(=O)CCNS(=O)(=O)c2ccccc2)c(=O)n(C)c1=O
→ -5.5%, 6.3%
> O=S(=O)(Nc1ccc(-n2cnnn2)cc1)c1ccc(Cl)s1
→ -10.4%, -17.6%
> CCOc1ccc(NC(=O)c2ccccc2NC(=O)CN(C)CC(=O)Nc2ccc(C)cc2)cc1
→ 1.7%, -0.1%
> Cc1ccc2oc(=O)c3cnn(CC(=O)Nc4ccccc4N4CCN(C)CC4)c3c2c1
→ -6.3%, -13.0%
> CCn1ccc2cc(S(=O)(=O)N3CCC(C(=O)NCCOC)CC3)ccc21
→ -5.9%, 8.8%
> CCCCCCCCCCCCS[C@H]1CS(=O)(=O)C[C@@H]1O
→ -6.4%, -9.3%
> CCOC(=O)CSc1nnc(NC(=O)c2cccc([N+](=O)[O-])c2C)s1
→ 27.4%, 2.2%
> COc1ccc(Cl)cc1NC(=O)CN1CCN(S(=O)(=O)N2CCCCC2)CC1
→ -4.6%, 5.3%
> O=C(Nc1nc2ccccc2n1CCN1CCCC1)c1ccc(Cl)cc1
→ -11.4%, -2.1%
> CCn1ccc(C(=O)Nc2ccc3c(c2)CCC3)n1
→ -14.1%, 3.6%
> Cc1ccc(C(=O)Cn2c(-c3ccccc3)noc2=O)cc1
→ 0.5%, -0.1%
> CC(=O)Nc1nonc1-c1nc2ccccc2n1CCC#N
→ 0.1%, 15.2%
> Cc1cccc(CSc2[nH]c(=O)ncc2C)c1
→ -13.2%, -9.2%
> Cn1c(=O)n(C)c2cc([N+](=O)[O-])c(N3CCN(CCO)CC3)cc21
→ -4.8%, -0.3%
> COc1ccc(-c2nc3ccccc3o2)cc1NC(=O)c1ccc(N2CCC(C)CC2)c([N+](=O)[O-])c1
→ 1.1%, 17.1%
> Cc1ccccc1/C=C/C(=O)c1ccc([N+](=O)[O-])o1
→ -9.0%, -25.1%
> CCN(C(=O)COC(=O)CCS(=O)(=O)c1ccc(C)cc1)C1CCS(=O)(=O)C1 (configuration not stated)
→ -6.1%, 8.4%
> CCOc1cc(C2C(C(=O)OC(C)C)=C(C)N=C3SCCC(=O)N32)ccc1OC(C)=O (configuration not stated)
→ -16.4%, -2.9%
> CC(=O)C1=C(C)N(Cc2ccccc2)C(=O)N[C@H]1CCc1ccccc1
→ -0.8%, 5.0%

In the list so far, these contain a CF3 group.
Values in the order – KAT2A inh, FEN1 inhibitor
> O=C(CCNC(=O)C1CCN(S(=O)(=O)c2ccccc2)CC1)NCc1cccc(C(F)(F)F)c1
→ -21.6%, 18.6%
> Cc1cccc(-n2c(=O)c3c(c4cc(C)ccc4n3C)n(CC(=O)Nc3ccccc3C(F)(F)F)c2=O)c1
→ -4.0%, 18.8%

In another format: 4 of the compounds above.
Cc1ccccc1/C=C/C(=O)c1ccc([N+](=O)[O-])o1
  KAT2A inh: -9.0%
  FEN1 inhibitor: -25.1%

CCN(C(=O)COC(=O)CCS(=O)(=O)c1ccc(C)cc1)C1CCS(=O)(=O)C1 (configuration not stated)
  KAT2A inh: -6.1%
  FEN1 inhibitor: 8.4%

CCOc1cc(C2C(C(=O)OC(C)C)=C(C)N=C3SCCC(=O)N32)ccc1OC(C)=O (configuration not stated)
  KAT2A inh: -16.4%
  FEN1 inhibitor: -2.9%

CC(=O)C1=C(C)N(Cc2ccccc2)C(=O)N[C@H]1CCc1ccccc1
  KAT2A inh: -0.8%
  FEN1 inhibitor: 5.0%
